Screening results deposited in PubChem by several laboratories.
YopH PTP inh = blocks Yersinia enterocolitica YopH tyrosine phosphatase; inhibition, %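 (about 10 µM by stock and volumes)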; 140,000 tested, 0.16% active; AID 898; fluorescence Ex485/Em525;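 active = inhibition of 50% or more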;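 also: controls were vehicle for no effect and minimum signal wells for full effect; inactives centre near -20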
Mtb H37Rv = M. tuberculosis H37Rv growth inhibitors, H37Rv strain (AID 1626). M. tuberculosis H37Rv growth inhibition; higher % means a stronger effect. one-dose inhibition, % at 10 µM; IC50 in µM for titrated hits. 220,000 tested, 0.95% active;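 active = confirmed in a dose series; inconclusive = inhibition above 80% but not taken into the dose series; inactive = below 80% or under 30% at every dose of the series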;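 also: bacteria incubated seven days before Alamar blue readout; 0% = bacteria only wells and 100% = bacteria with antibiotic wells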
Mtb betalactam = beta-lactam sensitization of Mtb H37Rv. 330,000 tested, 0.27% active. AID 434955. inhibition, % at 25 µM. M. tuberculosis H37Rv growth with meropenem, percent inhibition; hits of this screen are not shown here;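 active = about 74% or more and at least 40 points above the plate without the antibiotic, then above 30% in a dose series; inconclusive = first-round hits that could not be retested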;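 also: growth measured after seven days incubation then overnight dye step; 0% = bacteria only wells and 100% = bacteria with antibiotic; twin plates without the antibiotic show which effects depend on it; some results filed as inactive read as strong as hits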
RecA splice inh = blocks M. tuberculosis RecA intein splicing; cell-free RecA intein splicing, fluorescence; 290,000 tested, 0.75% active; P9WHJ3; inhibition, %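 (about 9 µM by stock and volumes)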; in the data active = inhibition above about 30%; inconclusive = no clear call, values can overlap the other calls;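 also: 0% = vehicle wells and 100% = reference inhibitor control wells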
Target sequence (P9WHJ3 whole entry, looked up, canonical isoform): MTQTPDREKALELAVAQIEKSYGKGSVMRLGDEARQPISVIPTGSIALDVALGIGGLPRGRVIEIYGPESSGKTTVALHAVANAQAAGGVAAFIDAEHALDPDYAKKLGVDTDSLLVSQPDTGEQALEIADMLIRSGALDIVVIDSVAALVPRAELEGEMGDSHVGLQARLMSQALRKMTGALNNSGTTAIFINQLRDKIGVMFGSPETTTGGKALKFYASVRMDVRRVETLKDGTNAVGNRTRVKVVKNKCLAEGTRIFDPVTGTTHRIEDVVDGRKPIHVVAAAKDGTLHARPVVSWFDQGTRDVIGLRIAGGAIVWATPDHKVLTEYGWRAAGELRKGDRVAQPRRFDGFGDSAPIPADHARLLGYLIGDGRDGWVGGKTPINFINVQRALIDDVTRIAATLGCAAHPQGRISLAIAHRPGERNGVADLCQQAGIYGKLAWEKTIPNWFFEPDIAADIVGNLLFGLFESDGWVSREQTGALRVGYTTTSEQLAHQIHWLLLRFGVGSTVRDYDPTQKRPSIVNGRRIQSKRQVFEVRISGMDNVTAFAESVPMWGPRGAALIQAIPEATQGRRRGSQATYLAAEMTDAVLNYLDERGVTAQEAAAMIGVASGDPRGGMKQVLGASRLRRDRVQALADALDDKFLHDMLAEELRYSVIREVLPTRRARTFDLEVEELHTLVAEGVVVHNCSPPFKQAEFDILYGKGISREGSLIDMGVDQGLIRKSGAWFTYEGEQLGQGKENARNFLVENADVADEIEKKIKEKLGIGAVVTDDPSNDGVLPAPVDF
Arbovirus inh = antivirals against arbovirus infection | arbovirus infection cell-based antiviral screen | inhibition, % at 10 µM | 200,000 tested, 0.37% active | AID 1251;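 active = inhibition from about 30%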;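 also: bluetongue infection of BSR cells; cell survival read as ATP light after 72 h; 0% = infected wells without compound and 100% = uninfected wells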
Arbovirus inh repeat = second read-out of Arbovirus inh, no call of its own (marks repeat the call); inhibition, %; measured here: 10K subset replicate screen; many hits read low in the repeat;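 first of two repeat runs on a subset; 0% = infected and 100% = uninfected wells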
Starred values were filed as active, the others as inactive; ? = inconclusive; · = no result given; & = joins results of further samples. This is a subset, so the mix of outcomes need not match the whole.

SMILES | YopH PTP inh | Mtb H37Rv | Mtb betalactam | RecA splice inh | Arbovirus inh | others
COc1ccc(C(=O)COC(=O)[C@H](C)Nc2ccc(C(F)(F)F)cc2[N+](=O)[O-])c(OC)c1 | -2 | 9% | 71 | -1.3 | 0
CC(C)c1c(C(=O)N/N=C/c2ccc3c(c2)OCO3)nnn1-c1nonc1N | · | · | 2 | -0.7 | ·
O=C(CSc1cnc2ccccc2n1)c1ccc(F)cc1 | -18 | -8% | 2 | 2.0 | -4
O=C1CC(NS(=O)(=O)c2cccs2)CN1c1ccccc1 (stereo not drawn) | · | · | -6 | -0.7 | ·
CCCOc1ccc(NC(=O)CC2C(=O)N(C)C(=S)N2Cc2cccs2)cc1 (stereo not drawn) | -25 | 0% | 20 | 0.3 | -7
COc1ccc(C(=O)NNC(=S)NC(=O)c2cccnc2)cc1 | · | 8% | 92 | -3.7 | 6
COc1ccc(NC(=O)C2CSC3c4ccccc4C(=O)N23)cc1 (stereo not drawn) | -35 | -9% | -5 | 2.0 | 13
CC12COC3(C(=O)Nc4ccccc4F)CC1CCC32C (stereo not drawn) | · | -3% | 4 | 1.7 | -1
COc1ccc(-n2c(=O)[nH]cc(C(=O)Nc3ccccc3)c2=O)cc1 | -41 | 2% | 3 | 0.5 | 19
CCN(CC)Cc1oc(-c2ccccc2)cc1C(=O)O | · | · | -6 | -3.6 | -2
Cc1cc(=O)[nH]c(SC/C=C/c2ccccc2)n1 | 10 | -4% | -8 | 1.8 | 12
C[C@@H](NC(=O)[C@@H]1Cc2ccccc2CN1C(=O)OC(C)(C)C)C(=O)NC1CCCC1 | · | · | 20 | -1.5 | ·
Cn1c2ccccc2c2nnc(SCC(N)=O)nc21 | · | · | 4 | -0.2 | ·
Cc1cc(C)cc(C(=O)N2CCCCCC2)c1 | 14 | -2% | 10 | · | -3
COc1ccc(C(=O)c2oc3ccccc3c2NC(C)=O)cc1 | -14 | 13% | 11 | -4.5 | 0
COc1ccc(NS(=O)(=O)c2cc(C(=O)O)ccc2C)cc1 | -28 | 56% | 8 | -0.5 | 2
Cc1nnc(SCC(=O)c2c(N)n(Cc3ccccc3)c(=O)n(C)c2=O)n1C | · | -3% | 7 | -1.3 | 12
O=C1c2ccccc2S(=O)(=O)N1CC1CC(c2ccccc2Cl)=NO1 (stereo not drawn) | -39 | -5% | -4 | 0.7 | 6
O=C1NCCC/C1=N/Nc1cc(F)ccc1F | · | -10% | -3 | 0.1 | ·
CS(=O)(=O)NN1C(=O)c2ccccc2NC1c1cccc(O)c1 (stereo not drawn) | · | 2% | -8 | -14 | 0
O=C1CC(c2ccsc2)c2ccc3ccccc3c2N1 (stereo not drawn) | · | 4% | -5 | 0.2 | 0
CC(C)c1ccc(C2NC(=S)NC3=C2C(=O)CC(C)(C)C3)cc1 (stereo not drawn) | -9 | -6% | -6 | -2.7 | 8
Cc1ccc(/C=C/C(=O)OCn2nnc3ccccc3c2=O)o1 | · | 59% | 100 | -2.7 | ·
COc1n[nH]c(C(=O)Nc2nc3ccccc3s2)c1[N+](=O)[O-] | · | -2% | 49 | -0.9 | 4
NS(=O)(=O)c1ccc(CNC(=O)/C=C/c2cccc([N+](=O)[O-])c2)cc1 | · | -5% | 1 | -1.0 | ·
Cc1ccc(-c2csc3ncnc(N4CCN(Cc5ccccc5)CC4)c23)cc1 | · | · | -10 | 2.8 | ·
CCOC(=O)CSc1cccc2cccnc12 | 0 | 87% | -2 | -1.7 | -3
COc1ccccc1C(=O)NNC(=O)CN1C(=O)c2ccccc2C1=O | · | · | -4 | -1.2 | ·
COc1ccc(Cn2cnc([N+](=O)[O-])c2)cc1[N+](=O)[O-] | · | -11% | -11 | 2.3 | ·
S=C(Nc1ccc(Br)cc1Cl)Nn1cnnc1 | · | 5% | -6 | -0.5 | -5

Of the compounds above, these contain fluorine:
SMILES | YopH PTP inh | Mtb H37Rv | Mtb betalactam | RecA splice inh | Arbovirus inh | others
COc1ccc(C(=O)COC(=O)[C@H](C)Nc2ccc(C(F)(F)F)cc2[N+](=O)[O-])c(OC)c1 | -2 | 9% | 71 | -1.3 | 0
O=C(CSc1cnc2ccccc2n1)c1ccc(F)cc1 | -18 | -8% | 2 | 2.0 | -4
CC12COC3(C(=O)Nc4ccccc4F)CC1CCC32C (stereo not drawn) | · | -3% | 4 | 1.7 | -1
O=C1NCCC/C1=N/Nc1cc(F)ccc1F | · | -10% | -3 | 0.1 | ·

Remaining list, next part
SMILES | YopH PTP inh | Mtb H37Rv | Mtb betalactam | RecA splice inh | Arbovirus inh | others
Cc1cc(C)n(-c2nc3ccccc3nc2N2CCN(S(=O)(=O)c3ccc4ccccc4c3)CC2)n1 | -4 | -5% | -5 | -0.3 | 5
O=C(CSc1nnnn1-c1cccnc1)Nc1ccc(F)cc1F | · | · | -4 | 0.4 | ·
Cc1ccc(S(=O)(=O)n2nc(-n3c(C)ccc3C)c3c(F)cccc32)c2ccccc12 | · | 2% | 6 | 1.5 | ·
CC(C)CCOP(N)(=O)Oc1ccccc1 (stereo not drawn) | · | · | -8 | 0.0 | ·
CCN(CC)C(=O)[C@]1(c2ccccc2)C[C@@H]1CN | · | -9%&4% | -7 | -2.4 | 1
Cc1nnc(SCC(=O)NCc2ccc(Cl)cc2)[nH]c1=O | -20 | -6% | -6 | 0.6 | -3
CC12C(=O)N(CCC(=O)O)C(=O)C1C1C=CC2C1 (stereo not drawn) | 0 | -6% | -4 | -5.3 | 5
CC(C)(C)OC(=O)N1CCC[C@H]1c1nnc(SCc2c(Cl)cccc2Cl)o1 | -13 | 7% | 0 | 8.2 | 0
CCc1nn(C(C)C(=O)NCc2cccc(OC)c2)c(=O)c2cc3occc3n12 (stereo not drawn) | · | · | -3 | 5.4 | ·
O=C(Cn1cnc(S(=O)(=O)N2CCCCC2)c1)Nc1ccc(OC(F)(F)F)cc1 | · | · | 7 | 1.7 | ·
C/C(=N\Nc1nc(-c2cc(C)ccc2C)cs1)c1cc2ccccc2oc1=O | -18 | 1% | 10 | -0.7 | 3
CCCN1CCC(NC(=S)Nc2cccc(Cl)c2Cl)CC1 | · | -4% | 8 | 5.0 | -4
CCOc1ccccc1NC(=O)/C(C#N)=C/c1c(C)nn(-c2ccccc2)c1Cl | -12 | 1% | 3 | 3.3 | -4
N#Cc1c(/N=C/c2ccco2)sc2c1CCCCC2 | -42 | -5% | 66 | -2.8 | 2
O=C(c1ccc(Cl)c(S(=O)(=O)NCc2ccco2)c1)N1CCN(c2ccc(F)cc2)CC1 | -20 | 3% | -5 | 0.4 | -14
COC(=O)Cn1c(=O)cnc2ccccc21 | -32 | -2% | 17 | -0.4 | -4
CCS(=O)(=O)c1ccc2c(c1)N(S(=O)(=O)c1ccc(OC)cc1)CC(C(=O)O)O2 (stereo not drawn) | -2 | -8% | 13 | 0.5 | 5
COc1ccc(-n2c(CN3CCOCC3)nc3ccccc3c2=O)c(OC)c1 | · | · | 1 | -2.1 | ·
CCc1ccc(C2C(C#N)=C(N)Oc3cc(N)ccc32)cc1 (stereo not drawn) | · | · | 5 | -16 | ·
Cc1ocnc1C(=O)Nc1ccc(Cl)cc1 | -38 | -4% | -8 | -5.9 | 4

Grouped by structure, those above containing a nitro group on carbon.
SMILES | YopH PTP inh | Mtb H37Rv | Mtb betalactam | RecA splice inh | Arbovirus inh | others
COc1ccc(C(=O)COC(=O)[C@H](C)Nc2ccc(C(F)(F)F)cc2[N+](=O)[O-])c(OC)c1 | -2 | 9% | 71 | -1.3 | 0
COc1n[nH]c(C(=O)Nc2nc3ccccc3s2)c1[N+](=O)[O-] | · | -2% | 49 | -0.9 | 4
NS(=O)(=O)c1ccc(CNC(=O)/C=C/c2cccc([N+](=O)[O-])c2)cc1 | · | -5% | 1 | -1.0 | ·
COc1ccc(Cn2cnc([N+](=O)[O-])c2)cc1[N+](=O)[O-] | · | -11% | -11 | 2.3 | ·

(listing goes on)
SMILES | YopH PTP inh | Mtb H37Rv | Mtb betalactam | RecA splice inh | Arbovirus inh | others
CCOc1ccc(NC(=O)CSc2nc3c(c(=O)n2C)SC(C)C3)cc1 (stereo not drawn) | -39 | 4% | -3 | · | -2 | Arbovirus inh repeat=-1
COCCCNC(=O)c1c(N)n(-c2ccc(S(N)(=O)=O)cc2)c2nc3ccccc3nc12 | -23 | · | -3 | -140 | 9
CCCCNC(=O)c1onc(CSc2ccccc2)c1C(=O)O | -83 | -10% | 9 | -2.5 | 11
CC1Cc2nc(SCC(=O)NC3CCCCC3)n(C)c(=O)c2S1 (stereo not drawn) | -3 | -9% | -1 | 2.1 | 7
COc1cccc2cc(C(=O)NCCC3=CCCCC3)c(=O)oc12 | · | -2% | -1 | 1.7 | 3
CCOc1cc(C(=O)OCC(=O)Nc2ncc(Cl)c(C)c2Cl)ccc1OCC(=O)N1CCOCC1 | -4 | -3% | -6 | 0.8 | -3
Cc1ccc(N2C(=O)CC(Nc3ccccc3)C2=O)cc1 (stereo not drawn) | -5 | -9% | 2 | -0.3 | 3
Cc1ccc(/C=N/N2CCOCC2)s1 | · | 3% | -2 | -1.9 | 3
Cc1ccc(S(=O)(=O)c2c(C)cc(C)nc2N2CCCCC2)cc1 | · | 5% | · | 3.6 | -7
CSc1nc(-c2ccccc2)c(C#N)c(=O)[nH]1 | · | · | 2 | -2.6 | ·
COc1ccc(NC(=O)C2CC(c3ccccc3O)=NO2)cc1OC (stereo not drawn) | · | · | 1 | -0.4 | ·
Cc1nn2c(CN(C(=O)CN3CCOCC3)c3ccccc3)nnc2c2ccccc12 | 4 | 3% | -4 | -4.1 | 11
Cc1cccc(N2CCN(C(=O)c3ccccc3NC(=O)C3CC=CCC3C(=O)O)CC2)c1 (stereo not drawn) | 2 | -6% | 6 | 2.2 | 5
O=C(CNS(=O)(=O)c1ccc2ccccc2c1)OCC(=O)c1ccc(Br)s1 | -11 | -2% | 10 | 1.2 | -4
O=C(CCC(=O)N1CCOc2ccc(Cl)cc21)NCCCN1CCN(Cc2ccccc2)CC1 | · | · | 1 | -0.9 | ·
CCOc1ccc(NC(c2ccccn2)c2oc(CO)cc(=O)c2O)cc1 (stereo not drawn) | · | 86% | -14 | -19 | 2
CCCCOCCCNC(=S)Nc1ccc(S(=O)(=O)N2CCOCC2)cc1 | · | 1% | -8 | -2.1 | ·
Cc1ccc(C(=O)NC(C)(COc2nonc2C)COc2nonc2C)cc1 | -26 | -9% | 3 | 0.4 | 2
CCN(C(=O)c1ccc(S(=O)(=O)N2CCC(C)CC2)cc1)C1CCS(=O)(=O)C1 (stereo not drawn) | · | · | -5 | 0.7 | ·
O=C(NC1CCCC1)c1ccc(CS(=O)(=O)c2cccc(C(F)(F)F)c2)o1 | -42 | 5% | 2 | -2.6 | 1
CCn1c(=O)cc(SCC(=O)Nc2cccc(C)n2)c2ccccc21 | · | 6% | -1 | -0.4 | 2
COc1cccc(Cn2cnc3c(N)c(C)c(C)cc32)c1 | · | -2% | 1 | 1.7 | -3
COC(=O)C(C)Sc1ncnc2c1nnn2-c1ccc(F)cc1 (stereo not drawn) | -39 | ? | 100 | 53* | -3
CCCOc1ccc(C(=O)c2ccccc2C(=O)O)cc1OCCC | · | -7% | -13 | -0.2 | ·
COc1nccnc1NS(=O)(=O)c1ccc(NCc2cc(Br)ccc2O)cc1 | · | · | 5 | 5.0 | ·
Cc1ccc(NC(=O)c2nc[nH]c2C(=O)Nc2ccc(C)cc2)cc1 | -4 | -1% | 48 | -0.2 | -7
Cc1cc(C)n(-c2ccc(S(=O)(=O)N3CCOCC3)cc2[N+](=O)[O-])n1 | · | -10% | -6 | 1.4 | ·
O=C(NC(=S)NC1CCN(Cc2ccccc2)CC1)c1ccc(F)cc1 | · | · | -9 | 0.5 | ·
COc1cc2c(cc1OC)-c1c(OC)c(OC)cc3c1[C@H](C2)N(C)CC3 | 17 | -13% | -1 | 34* | -9
O=C(Nc1ccccc1)c1ccc2nsnc2c1 | -41 | 4% | 19 | -2.7 | -3
CC(C)(C)[C@H]1C=C(C(=O)N2CCOCC2)O[C@@H](OCCCCO)C1 | · | -8% | -6 | 2.3 | 0
O=C(Nc1ccccc1C(=O)N1CCN(c2cccc(Cl)c2)CC1)C1=CSCCO1 | · | · | 3 | 4.3 | ·
COC(=O)CCC(=O)Nc1ccc(Br)cc1 | -5 | -6% | -1 | -1.4 | 9 | Arbovirus inh repeat=2
CCOc1ccc(S(=O)(=O)Nc2nc3ccccc3nc2Cl)cc1 | · | · | -2 | -0.3 | ·
COC(=O)c1ccc(NC(=O)Cc2ccc(C)cc2)cc1 | -17 | -14% | -11 | -0.5 | 2
Cc1ccccc1NC(=O)COC(=O)C1C2CC3OC(=O)C1C3C2 (stereo not drawn) | · | · | -3 | -1.2 | ·
O=C(CC1SC(=O)NC1=O)Oc1ccc(/C=N/NC(=O)c2ccccc2O)cc1 (stereo not drawn) | · | 0% | · | 5.0 | ·
COc1ccc(NC(=O)c2cc(C)on2)cc1OC | 33 | 1% | 0 | 3.3 | 6
